# Ecoli rRNA inh: inhibits bacterial ribosomal RNA function over humanized ribosomes; E. coli WT GFP vs humanized-ribosome RFP mutants, fluorescence, 24 h; hits give low values; DMSO median 0, no signal -100; GFP signal change (wild-type ribosome), % (no concentration beside the values); 350,000 compounds, 1.6% hits;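 active = significant combined selectivity score with lowered wild-type GFP, culture density cut under 30%, mutant RFP and density less affected; inactive = any of these conditions unmet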; note: one replicate is shown; some compounds called inactive have numbers as strong as hits
# Ecoli rRNA inh OD600: further read-out of Ecoli rRNA inh, marked with its call; OD600 change, %; measured here: OD600 growth;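 optical density of the mix in the first replicate; 0 = DMSO median and -100 = no signal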
# Ecoli rRNA inh RFP: also measured in Ecoli rRNA inh; calls as there; RFP signal change, %; measured here: RFP humanized mutant strains;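 first replicate; 0 = DMSO median and -100 = no signal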
# * = called active by the depositor.
nr	structure	Ecoli rRNA inh	Ecoli rRNA inh OD600	Ecoli rRNA inh RFP
1	O=C(N[C@H](Cc1ccccc1)C(=O)N1CCN(C(=O)N2CCCCC2)CC1)[C@H]1O[C@@H](n2ccc(=O)[nH]c2=O)[C@H](O)[C@@H]1O	20	9	1.5
2	C[C@H]1CN([C@@H](C)CO)C(=O)c2cccc(NC(=O)C3CCOCC3)c2O[C@@H]1CN(C)Cc1ccncc1	1	7	-3.2
3	O=C(C[C@H]1C=C[C@@H](NC(=O)Nc2cc(F)ccc2F)[C@@H](CO)O1)Nc1ccccc1	-6	-7	-0.4
4	Cc1ccc(N(Cc2ccccc2)C(=O)CSC(C)C(=O)Nc2cc(C)on2)cc1 (stereo unspecified)	0	-21	2.1
5	C[C@H](CO)N1C[C@H](C)[C@@H](CN(C)Cc2ccc3c(c2)OCO3)Oc2ccc(NC(=O)C3CC3)cc2C1=O	0	0	-2.5
6	O=C(C[C@H]1C=C[C@H](NC(=O)C2CC2)[C@H](CO)O1)NCCc1cscn1	1	0	-2.2
7	C[C@H](CO)N1C[C@H](C)[C@@H](CN(C)C(=O)Nc2ccccc2)OCCCC[C@H](C)Oc2ccc(NC(=O)Nc3ccc(C(F)(F)F)cc3)cc2C1=O	1	5	-1.0
8	O=C(Cc1ccccn1)N1CC(=O)N2[C@H](CO)[C@H](c3ccc(-c4ccccc4)cc3)[C@@H]2C1	3	1	0.5
9	O=S(=O)(c1ccccc1F)N1CCCCN2[C@@H](CO)[C@H](c3ccc(-c4cccnc4)cc3)[C@@H]2C1	-1	4	-1.4
10	CO[C@H]1CN(C)C(=O)c2ccc(NC(C)=O)cc2OC[C@@H](C)N(Cc2ccncc2)C[C@@H]1C	-1	2	-3.1
11	O=C(C[C@H]1C=C[C@H](NC(=O)c2ccncc2)[C@@H](CO)O1)NCc1ccncn1	3	1	0.1
12	CCCC#Cc1ccc([C@H]2[C@H]3CN(C(=O)NCCC)CC(=O)N3[C@H]2CO)cc1	0	-1	-3.4
13	C[C@@H]1CCCCO[C@@H](CN(C)C(=O)Nc2cccc3ccccc23)[C@@H](C)CN([C@H](C)CO)C(=O)c2cc(NS(=O)(=O)c3cccs3)ccc2O1	2	0	-1.8
14	CCC(=O)N(C)C[C@H]1Oc2cc(-c3ccc(C#N)cc3)ccc2S(=O)(=O)N([C@@H](C)CO)C[C@@H]1C	-9	-10	0.5
15	Cc1ccc(-c2cnc3c(c2)C(=O)N([C@H](C)CO)C[C@@H](C)[C@H](CN(C)C(=O)CN(C)C)O3)cc1	5	3	-1.6
16	N#Cc1ccc(-c2ccc([C@H]3[C@@H](CO)N4C(=O)CNC[C@H]34)cc2)cc1	2	15	-2.1
17	CCCNC(=O)N1CCC2(CC1)CN(C(=O)NC1CCCC1)[C@@H](CO)c1[nH]c3cc(OC)ccc3c12	-1	6	2.5
18	CCOC(=O)N1CCN(C(C(=O)NC2CCCC2)c2cccc(OC)c2OC)CC1 (stereo unspecified)	15	22	1.7
19	CC(NS(=O)(=O)c1cccc(Cl)c1F)[C@H](O)c1ccccc1 (stereo partly specified)	-2	-7	2.3
20	CO[C@H]1CN(C)C(=O)c2cc(NC(C)=O)ccc2OC[C@H](C)N(C(=O)C2CCC2)C[C@@H]1C	3	2	-1.3
21	C[C@@H]1CN([C@@H](C)CO)C(=O)c2cc(NC(=O)CCN3CCOCC3)ccc2O[C@H]1CN(C)Cc1ccc(C(=O)O)cc1	5	20	-1.8
22	C[C@@H]1CCCCO[C@H](CN(C)Cc2ccncc2)[C@@H](C)CN([C@H](C)CO)C(=O)c2cc(NS(=O)(=O)c3ccccc3)ccc2O1	2	6	0.0
23	COc1ccc(N(C)S(=O)(=O)c2cccc(C(=O)OCC(=O)Nc3cc(C)ccc3OC)c2)cc1	1	-2	-1.1
24	O=S(=O)(c1cccc(F)c1)N1[C@@H]2CNC[C@H]1C2c1ccc(-c2ccccc2F)cc1 (stereo partly specified)	-5	0	0.1
25	COC(=O)[C@]12C[C@H](CC(=O)NCc3ccc(OC)c(OC)c3)C(=O)N(Cc3ccc4c(c3)OCO4)C1=C[C@H](C(C)(C)C)O[C@@H]2C	11	-2	2.9
26	Cc1ccc(S(=O)(=O)N(C)C[C@H]2Oc3ccc(NC(=O)C4CCCCC4)cc3C(=O)N([C@@H](C)CO)C[C@H]2C)cc1	-4	-5	-0.9
27	C/C=C/c1cnc2c(c1)C(=O)N([C@@H](C)CO)C[C@H](C)[C@@H](CN(C)C(=O)Nc1ccc(C(F)(F)F)cc1)O2	-6	-1	-0.4
28	CN(C)C(=O)C[C@@H]1CC[C@@H](NC(=O)NC2CCCCC2)[C@@H](CO)O1	-3	1	1.0
29	O=C(N[C@@H]1CC[C@H](CCNS(=O)(=O)c2ccc(Cl)cc2)O[C@@H]1CO)c1cnccn1	-1	1	-2.2
30	CCN(CC)C(=O)C1=C(C)N(Cc2ccc(F)cc2)C(=O)C(CC(=O)NC2CCCCC2)C1 (stereo unspecified)	1	0	-1.6
31	COCC(=O)N(C)C[C@@H]1Oc2cc(C3=CCCCC3)ccc2S(=O)(=O)N([C@H](C)CO)C[C@@H]1C	0	7	-2.1
32	C[C@@H]1CN([C@H](C)CO)C(=O)Cc2cc(N(C)C)ccc2O[C@@H]1CN(C)Cc1ccncc1	3	10	-2.2
33	C[C@H]1CN([C@@H](C)CO)C(=O)c2cc(-c3ccc(C#N)cc3)cnc2O[C@@H]1CN(C)Cc1cccnc1	-1	-2	-0.8
34	CN(C)C(=O)C[C@@H]1CC[C@H]2[C@@H](COC[C@@H](O)CN2S(=O)(=O)c2ccccc2)O1	-1	11	-1.8
35	C[C@H](CO)N1C[C@H](C)[C@H](CN(C)S(=O)(=O)c2cccs2)Oc2ccc(NC(=O)C3CCCCC3)cc2CC1=O	-3	-13	1.7
36	C[C@@H]1CN([C@@H](C)CO)C(=O)c2cc(NC(=O)Nc3cccc4ccccc34)ccc2O[C@@H](C)CCCCO[C@@H]1CN(C)C(=O)Nc1ccccc1	2	6	-1.0
37	Cc1noc(C)c1C(=O)N1CCC1(C)C(=O)NS(=O)(=O)c1ccc(Cl)cc1 (stereo unspecified)	5	17	9.1
38	C[C@@H]1CN([C@@H](C)CO)C(=O)c2cc(NS(=O)(=O)c3cn(C)cn3)ccc2O[C@@H]1CN(C)S(=O)(=O)c1cccs1	-1	3	-0.6
39	CC(=O)N(C)C[C@@H]1Oc2cc(C#Cc3ccccc3)ccc2S(=O)(=O)N([C@H](C)CO)C[C@@H]1C	-1	-11	7.7
40	CCNC(=O)C1(C)CCN(C(=O)C(c2ccccc2)c2ccccc2)C1 (stereo unspecified)	4	-5	-1.0
41	C[C@@H]1CN([C@H](C)CO)C(=O)c2cc(NC(=O)Nc3ccc4c(c3)OCO4)ccc2O[C@@H](C)CCCCO[C@@H]1CN(C)Cc1ccc(C(F)(F)F)cc1	2	3	0.2
42	COc1ccccc1-c1cnc2c(c1)C(=O)N([C@H](C)CO)C[C@@H](C)[C@@H](CN(C)C(=O)c1cccnc1)O2	0	2	-2.4
43	COc1ccc(NC(=O)Nc2cccc3c2O[C@@H](CN(C)S(=O)(=O)c2ccc(C)cc2)[C@H](C)CN([C@@H](C)CO)C3=O)cc1	-3	-3	-2.6
44	COc1ccc(-c2csc(C(C)(O)c3cccc(F)c3)n2)cc1OC (stereo unspecified)	-8	-7	-0.2
45	C[C@H](CO)N1C[C@H](C)[C@@H](CN(C)S(=O)(=O)c2ccc(Cl)cc2)OCCCC[C@H](C)Oc2ccc(NC(=O)Nc3ccc(F)cc3)cc2C1=O	-6	-4	-5.4
46	C[C@@H]1CN([C@H](C)CO)C(=O)c2cc(NC(=O)CCCCCC(=O)Nc3ccccc3N)ccc2O[C@@H]1CN(C)C	5	4	1.3
47	Cc1ccc(S(=O)(=O)N(C)C[C@@H]2Oc3ccc(NC(=O)C4CCCCC4)cc3CC(=O)N([C@H](C)CO)C[C@@H]2C)cc1	-3	-6	-3.4
48	CO[C@@H]1CN(C)C(=O)c2cc(NC(=O)C3CC3)ccc2OC[C@@H](C)N(C(=O)c2ccccc2)C[C@H]1C	-3	1	-0.5
49	COc1ccc2c3c([nH]c2c1)[C@@H](CO)N(C(=O)C1CCCC1)CC31CCN(Cc2cccc(F)c2)CC1	-2	-57	33
50	C[C@@H]1CN([C@H](C)CO)C(=O)c2cccc(NC(=O)Nc3ccccc3)c2O[C@H]1CN(C)C(=O)Nc1ccc(C(F)(F)F)cc1	-1	2	0.3
51	CC(C)c1cn(CC[C@H]2CC[C@H](NS(=O)(=O)c3ccccc3)[C@H](CO)O2)nn1	-1	1	0.5
52	CCCNC(=O)N(C)C[C@H]1Oc2ncc(C3=CCCC3)cc2C(=O)N([C@@H](C)CO)C[C@@H]1C	0	1	-0.8
53	N#C[C@@H]1[C@@H](c2ccccc2)[C@H](CO)N1S(=O)(=O)Cc1ccccc1	-4	2	-1.9
54	N#C[C@H]1[C@@H](c2ccc(/C=C/c3ccccc3)cc2)[C@@H](CO)N1C(=O)Nc1ccccc1F	-1	-16	3.3
55	CO[C@@H]1CN(C)C(=O)c2ccc(NC(=O)Nc3c(C)noc3C)cc2OC[C@@H](C)NC[C@H]1C	3	5	0.9
56	COc1cccc(S(=O)(=O)N2[C@@H]3CNC[C@H]2C3c2ccc(-c3cccc(C)c3)cc2)c1 (stereo partly specified)	-8	-32	1.4
57	COc1ccc(S(=O)(=O)Nc2cccc3c2O[C@H](CN(C)Cc2ccc(Oc4ccccc4)cc2)[C@H](C)CN([C@H](C)CO)C3=O)cc1	1	6	0.7
58	C[C@H](CO)N1C[C@H](C)[C@H](CN(C)C(=O)CC2CC2)Oc2ncc(-c3ccc(C#N)cc3)cc2C1=O	4	-3	-3.4
59	COc1ccc(S(=O)(=O)N[C@H]2C=C[C@H](CC(=O)NCCc3ccncc3)O[C@@H]2CO)cc1	4	3	1.7
60	COc1cccc(C#Cc2ccc([C@@H]3[C@@H](CO)N4C(=O)CN(C(=O)C5CC5)C[C@@H]34)cc2)c1	3	-31	16

# (list continues)
nr	structure	Ecoli rRNA inh	Ecoli rRNA inh OD600	Ecoli rRNA inh RFP
61	C[C@H](CO)N1C[C@H](C)[C@H](CN(C)S(=O)(=O)c2cn(C)cn2)Oc2ccc(NC(=O)CCN3CCOCC3)cc2C1=O	3	10	-0.5
62	COc1ccc(C=O)c(-c2c(CCO)sc3ccccc23)c1	2	7	1.8
63	C[C@@H]1CCCCO[C@H](CN(C)C(=O)Nc2ccc(C(F)(F)F)cc2)[C@H](C)CN([C@H](C)CO)C(=O)c2cc(NC(=O)CCC(F)(F)F)ccc2O1	1	-2	-0.9
64	O=C(NC1Cc2ccccc2C1)[C@@H]1[C@@H](CO)[C@@H]2Cn3c(cccc3=O)[C@H]1N2Cc1ccccc1F	-1	-5	-1.1
65	CC(C)C(=O)Nc1ccc2c(c1)C(=O)N(C)[C@@H]1CC[C@H](CC(=O)NCC3CC3)O[C@@H]1CO2	4	3	-1.6
66	C[C@H]1CN([C@@H](C)CO)C(=O)c2ccccc2-c2ccccc2CO[C@@H]1CN(C)C(=O)Cc1ccccc1	-2	1	2.1
67	CO[C@H]1CN(C)C(=O)c2cc(NC(=O)C3CC3)ccc2OC[C@@H](C)N(Cc2cncnc2)C[C@H]1C	0	-3	-5.0
68	COc1ccc(-c2cnc3c(c2)C(=O)N([C@H](C)CO)C[C@H](C)[C@H](CN(C)Cc2ccc(C(=O)O)cc2)O3)cc1	-2	3	-5.0
69	COc1cccc(C#Cc2ccc([C@H]3[C@@H](CO)N4C(=O)CN(C(=O)C5CC5)C[C@H]34)cc2)c1	0	8	1.4
70	O=C(c1ccccc1)N1C[C@@H]2[C@H](c3ccccc31)[C@H](CO)N2Cc1cc(F)ccc1F	-2	-11	2.4

# A section taken from the entries so far:
nr	structure	Ecoli rRNA inh	Ecoli rRNA inh OD600	Ecoli rRNA inh RFP
1	O=C(N[C@H](Cc1ccccc1)C(=O)N1CCN(C(=O)N2CCCCC2)CC1)[C@H]1O[C@@H](n2ccc(=O)[nH]c2=O)[C@H](O)[C@@H]1O	20	9	1.5
2	C[C@H]1CN([C@@H](C)CO)C(=O)c2cccc(NC(=O)C3CCOCC3)c2O[C@@H]1CN(C)Cc1ccncc1	1	7	-3.2
3	O=C(C[C@H]1C=C[C@@H](NC(=O)Nc2cc(F)ccc2F)[C@@H](CO)O1)Nc1ccccc1	-6	-7	-0.4
4	Cc1ccc(N(Cc2ccccc2)C(=O)CSC(C)C(=O)Nc2cc(C)on2)cc1 (stereo unspecified)	0	-21	2.1
5	C[C@H](CO)N1C[C@H](C)[C@@H](CN(C)Cc2ccc3c(c2)OCO3)Oc2ccc(NC(=O)C3CC3)cc2C1=O	0	0	-2.5
6	O=C(C[C@H]1C=C[C@H](NC(=O)C2CC2)[C@H](CO)O1)NCCc1cscn1	1	0	-2.2
7	C[C@H](CO)N1C[C@H](C)[C@@H](CN(C)C(=O)Nc2ccccc2)OCCCC[C@H](C)Oc2ccc(NC(=O)Nc3ccc(C(F)(F)F)cc3)cc2C1=O	1	5	-1.0
8	O=C(Cc1ccccn1)N1CC(=O)N2[C@H](CO)[C@H](c3ccc(-c4ccccc4)cc3)[C@@H]2C1	3	1	0.5
9	O=S(=O)(c1ccccc1F)N1CCCCN2[C@@H](CO)[C@H](c3ccc(-c4cccnc4)cc3)[C@@H]2C1	-1	4	-1.4
10	CO[C@H]1CN(C)C(=O)c2ccc(NC(C)=O)cc2OC[C@@H](C)N(Cc2ccncc2)C[C@@H]1C	-1	2	-3.1

# Assay outcomes as filed in PubChem BioAssay.

# The list is partial; the hit share may differ from the screen's.
